2A Renilla: lowers the Renilla signal of an FMDV 2A StopGo reporter; HEK cells with a luciferase reporter of 2A StopGo recoding; Potency, µM (series often up to 57.5 µM), for inactives: top-dose signal change, negative = less light; actives 0.32% (n = 120,000); AID 1745857; active means well fitted falling curve with a large enough effect; inconclusive means small, poorly fitted or top-dose-only effect; inactive means no such curve, though single readings can be large or run the other way; further: nearly all actives have a fitted effect of over 55% in size; overnight with compound
StopGo FLuc: lowers the firefly signal of an FMDV 2A StopGo reporter. HEK cells with a luciferase reporter of 2A StopGo recoding. Potency, µM (top dose mostly 57.5 µM), for inactives: at the top dose signal change, negative = less light. actives 0.23% (n = 120,000); active = well fitted falling curve with a large enough effect; inconclusive = small, poorly fitted or top-dose-only effect; inactive = no such curve, though single readings can be large or run the other way; further: nearly all actives have a fitted effect of over 60% in size; overnight with compound
* = called active by the depositor; ? = inconclusive; & = joins results of further samples; [ ] = remark or other dose. On the % scale 0 is the no-effect control and ±100 the full control effect; potency means the concentration at half of the fitted maximal effect. An excerpt; count on the stated rates, not on these rows.

SMILES	2A Renilla	StopGo FLuc
C/C(OC(=O)C12CC3CC(CC(C3)C1)C2)=C1/CCOC1=O	0%	0%
CCCCOC(=O)c1ccc(NC(=O)c2sc3nc(C)cc(C)c3c2N)cc1	-11%	7%
O=C(Nc1ccc2oc(-c3ccccc3)nc2c1)c1ccc2ccccc2c1	-11%	-4%
COc1ccccc1Cn1c(C(C)NC(=O)c2ccco2)nc2ccccc21 (centres undefined)	14%	-5%
COc1ccc(-c2csc(NC(=O)CSc3nc4ccccc4o3)n2)cc1	12%	145%[activator]
COc1ccc(N2C(=O)CS(=O)(=O)C23C(=O)N(Cc2c(F)cccc2Cl)c2ccccc23)cc1 (centres undefined)	-23%	?
CCn1c(SC(C)C(=O)Nc2nc(C)c(C)s2)nnc1-c1ccc(F)cc1 (centres undefined)	8%	-12%
Cc1cc(=O)oc2cc(OCC(=O)NCCC3CCN(Cc4ccccc4)CC3)ccc12	-1%	8%
CCc1nc2ccc(C(=O)NCc3cc(OC)ccc3OC)cc2nc1CC	63%[activator]	21%
Cc1cc(NC(=O)CNc2cc(S(=O)(=O)N3CCCCC3)ccc2Oc2ccccc2)no1	55%[activator]	-16%
COc1ccc(C2C3=C(COC3=O)Nc3c2c(=O)[nH]c(=O)n3CC(C)C)cc1 (centres undefined)	-14%	-9%
Oc1ccccc1-c1nc2ccc(Cl)cn2c1Nc1ccc2c(c1)OCCO2	-13%	-13%
CC(C)C(=O)N(Cc1ccccc1)S(=O)(=O)c1ccc2c(c1)oc(=O)n2C	58%[activator]	13%
O=C(Cn1ccn(-c2cccc(Cl)c2)c(=O)c1=O)NCCc1ccccc1	-9%	-19%
CCCCOc1ccc(C(=O)NCCc2csc(-c3cccc(F)c3)n2)cc1	?	?
COCCn1c(-n2nc(C)c(C)c2C)nc2c1c(=O)n(CCc1ccccc1)c(=O)n2C	4%	-16%
CCCCCn1c(SCC(=O)OC)nc2c1c(=O)[nH]c(=O)n2C	-6%	-2%
Nc1nc2ccc([N+](=O)[O-])cc2[n+]([O-])n1	?	?
Cc1ccc(C)c(NC(=O)c2cc(=O)c3ccccc3o2)c1	-6%	168%[activator]
Cn1c(=O)n(C)c2cc(NS(=O)(=O)c3ccc(F)cc3)ccc21	262%[activator]	89%[activator]
CCOc1ccccc1CNC(=O)CCn1cccn1	-13%	0%
CCc1ccc(S(=O)(=O)N(C(C)=O)c2ccc3oc4c(c3c2)CCCC4)cc1	4%	-4%
COc1cc(OC)c(NC(=O)c2cc(S(=O)(=O)N3CCCC3)cn2C)cc1Cl	37%[activator]	4%
Fc1ccc(NC(=S)NCCCc2ccccc2)cc1	160%[activator]	0%
CCc1cccc(C)c1NC(=O)CCc1c(C)nc2c3ccccc3nn2c1C	?	?
Cc1nn(C)c(C)c1CC(=O)Nc1nc(-c2ccc(Cl)cc2Cl)cs1	-70%	-76%
COc1cc2ccccc2cc1C(=O)Nc1cccc(-c2nc3cc(C)c(C)cc3o2)c1	8%	41%[activator]
N#CNC(=Nc1cccc(F)c1)SCc1ccccc1F	0%	-9%
NC(=O)c1ccccc1OCc1cccc(C(F)(F)F)c1	1%[1.06 µM]	?
CN(CC(=O)NC(C)(C)C)C(=O)CCl	-29%	-17%
C/C(=N/NC(=S)NC(C)C)c1ccc(Cl)cc1	-8%[1.06 µM]	?
COCc1c(C(=O)N2CCC(C(=O)Nc3ccc4c(c3)OCO4)CC2)oc2ccccc12	-2%	-11%
CC(OC(=O)/C=C/c1cccc2ccccc12)C(=O)NC(N)=O (centres undefined)	-2%	10%
CCOc1cc(Cl)c(/C=C/C(=O)O)cc1OC	20%	25%
Cc1ccc(C(=O)NCC(=O)OCc2cc(=O)n3ccsc3n2)cc1	-9%	-16%
O=C(CCCn1c(=O)[nH]c2ccsc2c1=O)N1CCN(c2cccc(C(F)(F)F)c2)CC1	6%	-23%
CCN1CCN(CCCNC(=O)c2ccc3c(c2)sc2nc(-c4ccc(C)cc4)cn23)CC1	-16%	53%[activator]
CCOC(=O)c1sc2nc(CN(C)Cc3ccccc3)[nH]c(=O)c2c1C	-5%	18%
CCOC(=O)C1CCN(Cc2cc(=O)oc3cc(C)c(Cl)cc23)CC1	-5%	-8%
CC(C)(C)C1CCC(=C(C#N)C(N)=O)CC1 (centres undefined)	15%	19%
Cc1ccc(C)c(NC(=O)C(=O)NCCc2csc(-c3ccc(C(F)(F)F)cc3)n2)c1	-3%	-15%
Cc1ccn2c(=O)cc(COc3ccc(NC(=O)c4ccccc4F)cc3)nc2c1	-4%	-18%
COc1ccc(S(=O)(=O)N(CC(=O)N2CCc3ccccc3C2)c2ccc(C)cc2)cc1	238%[activator]	7%
COCCOc1cc2c(cc1CO)OCO2	4%	7%
CCOC(=O)c1c(C)oc2nc(C)nc(N3CCN(c4ccc(C(C)=O)cc4)CC3)c12	-4%	0%
COc1ccc(-c2nc3c4ccccc4n(CC(=O)N4CCN(c5ccccc5F)CC4)c(=O)n3n2)cc1	17%	0%
COc1cccc(CNc2nccn(-c3cc(C)cc(C)c3)c2=O)c1	13%	26%
Cc1cccc2c1N(Cc1ccccc1OC(C)C)C(=O)C2=O	5%	-8%
CCCCc1cc(=O)oc2c(C)c(OC(C)C(=O)NCc3ccncc3)ccc12 (centres undefined)	25%	-2%
Cc1cn2c(=O)cc(COC(=O)c3ccc(NC(=O)c4ccc(C(C)(C)C)cc4)cc3)nc2s1	-5%	-12%

5 neighbouring records from above, quoted:
SMILES	2A Renilla	StopGo FLuc
COc1ccc(S(=O)(=O)N(CC(=O)N2CCc3ccccc3C2)c2ccc(C)cc2)cc1	238%[activator]	7%
COCCOc1cc2c(cc1CO)OCO2	4%	7%
CCOC(=O)c1c(C)oc2nc(C)nc(N3CCN(c4ccc(C(C)=O)cc4)CC3)c12	-4%	0%
COc1ccc(-c2nc3c4ccccc4n(CC(=O)N4CCN(c5ccccc5F)CC4)c(=O)n3n2)cc1	17%	0%
COc1cccc(CNc2nccn(-c3cc(C)cc(C)c3)c2=O)c1	13%	26%

Remaining list, next part.
SMILES	2A Renilla	StopGo FLuc
COc1ccc(NC(=O)c2ccco2)cc1NC(=O)c1ccc(OC(C)C)cc1	6%	2%
CCc1cc2c(CN3CCN(Cc4ccccc4)CC3)cc(=O)oc2cc1O	-22%&-14%	-20%&0%
CCOc1cc(CNc2ccc(O)cc2)cc(Br)c1OCc1ccccc1	-7%	-1%
CCC1(C2=NCCN2)Cc2ccccc2O1 (centres undefined)	-19%	-25%
CCn1c(=O)c(=O)n(CC)c2cc(N3CCCCC3)c(NC(=O)c3ccc(Cl)cc3)cc21	15%&9%	-7%&2%
Cc1cc(Cl)ccc1OCc1nc(-c2ccc(-n3cccc3)cc2)no1	-10%	52%
Cc1cc(C)cc(OC(=O)c2cc(-c3ccc(Cl)cc3)on2)c1	17%	24%
CC1CCN(C(=O)COC(=O)c2ccccc2NC(=O)c2ccco2)CC1	12%	157%[activator]
COc1cccc2cc(-c3csc(Nc4ccc(O)cc4)n3)c(=O)oc12	73%[activator]	167%[activator]
CCOC(=O)c1cc2c(=O)n3ccccc3nc2n(CCCOC)c1=NC(=O)c1c(-c2c(F)cccc2Cl)noc1C	11%	49%[activator]
Cc1c(C(=O)Nc2nc(-c3cccs3)ns2)oc2ccccc12	3%	71%[activator]
O=C(O)CCC(=O)OCCc1ccccc1	1%	-9%
CCOC(=O)N1CCC(NC(=O)c2cc3c(OC)cccc3[nH]2)CC1	-3%	-3%
CCc1ccc(S(=O)(=O)Nc2cccc(-c3ccc(N4CCC(C)CC4)nn3)c2)s1	70%[activator]	79%[activator]
CCOc1ccc(-c2nc(CNC(=O)NC3CCCCC3)c(C)o2)cc1	-1%	38%
COc1ccc(C(C)=O)cc1CSCc1coc(-c2ccc(C)cc2)n1	?	?
N#Cc1ccc(C(=O)NCc2ccc3c(c2)CCN3C(=O)c2ccc(F)cc2)cc1	-17%	-14%
O=C(Nc1c(C(=O)Nc2ccc(F)cc2)oc2ccccc12)c1ccccc1F	-10%	10%
Cc1ccc2[nH]cc(C(C(=O)O)N3CCN(c4ccc(F)cc4)CC3)c2c1 (centres undefined)	-7%	-5%
Cc1ccc(NC(=O)C(=O)NCCc2csc3nc(-c4ccccc4C)nn23)cc1Cl	-15%&-16%	-9%&-12%
CCc1ccccc1NC(=O)CN(C)C(=O)c1cc(=O)c2cc(C)ccc2o1	-1%	12%
CC(C)n1ncc2cc(C(=O)NCc3ccccc3OC(F)F)cnc21	16%	0%
CCC(NC(=O)c1csc(C)c1-c1ccccc1)c1ccc(C(C)C)cc1 (centres undefined)	-13%	?
CCc1cc(C(c2ccc(F)cc2)N2CCN(CC)CC2)c(NC(=O)c2ccco2)s1 (centres undefined)	35%[activator]	-16%
CC(CCc1ccccc1)NC(=O)COC(=O)c1ccc2c(c1)NC(=O)CS2 (centres undefined)	-11%[1.06 µM]	2%
Cc1ccc(NC(=O)CSc2nnc(-c3cccs3)n2-n2cccc2)cc1C	13%	18%
Cc1ccc(-n2c(=O)c3c(c4cc(C)ccc4n3C)n(CC(=O)Nc3ccc(F)cc3)c2=O)cc1	-12%	-9%
COc1ccc(-c2c(C(F)(F)F)oc3cc(OCC#N)ccc3c2=O)cc1OC	-28%	-10%
CCOC(=O)N1CCN(CC(=O)Nc2oc3ccccc3c(=O)c2-c2ccc(F)cc2)CC1	-19%	24%
O=S(=O)(Nc1ccc(-c2ccc(N3CCOCC3)nn2)cc1)c1cccc(F)c1	125%[activator]	52%[activator]
COc1cc(NC(=O)CSc2nc3nc(C)c(Cc4ccc(C)cc4)c(C)n3n2)cc(OC)c1OC	?	?
Cc1ccc(C(C)C)c(OCC(=O)N2CCN(c3ncccn3)CC2)c1	-7%	2%
CCCc1nn2cc(-c3ccc(C)c(C)c3)nc2s1	5%	0%
CCN(Cc1cccs1)C(=O)NC(C)c1cccc(Br)c1 (centres undefined)	-1%	-2%
O=C1CC(c2cccc(O)c2)c2cc3c(cc2N1)OCO3 (centres undefined)	-1%	-1%
Cc1nc2cc(NC(=O)c3cccc(Cl)c3Cl)ccc2o1	0%	75%[activator]
Cn1c(=O)c2c(nc(Br)n2Cc2ccc(Cl)cc2)n(C)c1=O	2%	6%
C/C(=C\c1ccccc1)C(=O)Nc1ccccc1C(C)C	2%[1.06 µM]	5%
Cc1cccc(-c2nnn3c2nc(NCCC(C)C)c2ccccc23)c1	-14%	-25%
CCOC(=O)N1CCN(S(=O)(=O)c2cc(C(C)C)c(C)cc2OCC)CC1	242%[activator]	2%

Arranged by molar mass (descending): 3 of the compounds above
SMILES	2A Renilla	StopGo FLuc
COc1cc(NC(=O)CSc2nc3nc(C)c(Cc4ccc(C)cc4)c(C)n3n2)cc(OC)c1OC	?	?
Cc1ccc(C(C)C)c(OCC(=O)N2CCN(c3ncccn3)CC2)c1	-7%	2%
Cc1nc2cc(NC(=O)c3cccc(Cl)c3Cl)ccc2o1	0%	75%[activator]

Other results follow:
SMILES	2A Renilla	StopGo FLuc
Cc1ccccc1NC(=S)NNC=O	8%	-10%
O=C(CSc1nc2nccnc2c(=O)n1CCc1ccccc1)Nc1ccccc1	-14%	-11%
CC1=C(C(=O)Nc2ccccc2)C(c2cccnc2)n2nc(SCc3ccccc3Cl)nc2N1 (centres undefined)	-7%	-8%
c1ccc(OCCNCC2CCCO2)cc1 (centres undefined)	0%	58%[activator]
c1ccc(N2CCNCC2)cc1	-11%	-6%[11.5 µM]
COC(=O)C1=CN(C(C)C)C=C(C(=O)OC)C1c1ccc(C)s1	15%	2%
Cc1ccc(-c2c(N3CCCC3)n[nH]c2C2CC2)cc1	14%	9%
Cc1ccc(-n2nnc3c(sc4nc(C)c(C)cc43)c2=O)cc1Cl	-1%	-4%
Cc1nc2nc(NCc3ccc(Cl)cc3)[nH]n2c(=O)c1CCC(=O)Nc1cccc2ccccc12	-9%	5%
CCc1ccc(C2c3c(-c4cc(C)ccc4O)n[nH]c3C(=O)N2Cc2cccnc2)cc1 (centres undefined)	-19%	-17%
CCc1noc(C)c1C(=O)Nc1sc(Cc2ccccc2)cc1C(=O)OC	47%[activator]	0%
O=C(Nc1cccc(C(=O)OCc2cc(=O)n3c4c(sc3n2)CCCC4)c1)c1cccc(Cl)c1	-12%	-20%
O=C(NCC1CCCO1)Nc1c(NC2CCCCC2)c2ccccc2oc1=O (centres undefined)	-3%	-3%
COc1ccc(-c2nc3sc(CCNS(=O)(=O)c4ccccc4)c(C)n3n2)cc1	19%	-6%
CCc1cccc(NC(=O)c2c(-c3ccccc3Cl)noc2C)c1	-3%	-7%
O=c1c(=O)n(-c2cccc(Cl)c2)ccn1Cc1cccc(F)c1	40%[activator]	-5%
CCOC(=O)C1CCCN(C(=O)c2cccc(NC(=O)c3nsc4ccccc34)c2)C1 (centres undefined)	130%[activator]	309%[activator]
CN1CCN(C(=O)c2cccnc2-c2nc3ccccc3s2)CC1	-1%	15%
Cc1oc2cc(OC(=O)N(C)C)ccc2c(=O)c1-c1ccccc1	-5%	0%
Cn1ncc2c(SCc3nc4ccccc4n3C(F)F)ncnc21	-11%	134%[activator]
COc1ccc(C(=O)C2CC(=O)Nc3c2c(C)nn3-c2cccc(C)c2C)cc1F (centres undefined)	-3%	-3%
Cc1ccsc1CNC(=O)c1ccccn1	11%	52%[activator]
COc1ccc(Cl)cc1NC(=O)CSc1nnc(-n2nc(C)cc2C)n1N	30%	29%
CCc1nnsc1C(=O)NCC1(c2ccc(F)cc2)CCCC1	0%	-7%
Cc1ccccc1-n1nnnc1C(C)(C)N1CCOCC1	4%	-5%
NC(CO)c1ccc2ccccc2c1 (centres undefined)	86%[activator]	106%[activator]
CCOC(=O)c1cccc(NC(=O)NC2COc3ccccc3C2)c1 (centres undefined)	-18%	-19%
CCSc1ncc(Cl)c(C(=O)Nc2cccc(Cl)c2)n1	2%	-4%

Screening data from PubChem.
